YopH PTP inh = blocks Yersinia enterocolitica YopH tyrosine phosphatase; fluorescence Ex485/Em525; inhibition, %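 (about 10 µM by stock and volumes)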; 140,000 tested, 0.16% active; AID 898;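 active means inhibition of 50% or more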;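 further: controls were vehicle for no effect and minimum signal wells for full effect; inactives centre near -20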
Arbovirus anti = antivirals against arbovirus infection; arbovirus infection cell-based antiviral screen; inhibition, % at 10 µM; 200,000 tested, 0.37% active;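 active means inhibition from about 30%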;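 further: bluetongue infection of BSR cells; cell survival read as ATP light after 72 h; 0% = infected wells without compound and 100% = uninfected wells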
RecA splice inh = Mtb RecA intein splicing inhibition; P9WHJ3; cell-free RecA intein splicing, fluorescence; inhibition, %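 (about 9 µM by stock and volumes)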; 290,000 tested, 0.75% active; AID 2221; in the data active means inhibition above about 30%; inconclusive means no clear call, values can overlap the other calls;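 further: 0% = vehicle wells and 100% = reference inhibitor control wells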
Target sequence (P9WHJ3 whole entry, looked up, canonical isoform): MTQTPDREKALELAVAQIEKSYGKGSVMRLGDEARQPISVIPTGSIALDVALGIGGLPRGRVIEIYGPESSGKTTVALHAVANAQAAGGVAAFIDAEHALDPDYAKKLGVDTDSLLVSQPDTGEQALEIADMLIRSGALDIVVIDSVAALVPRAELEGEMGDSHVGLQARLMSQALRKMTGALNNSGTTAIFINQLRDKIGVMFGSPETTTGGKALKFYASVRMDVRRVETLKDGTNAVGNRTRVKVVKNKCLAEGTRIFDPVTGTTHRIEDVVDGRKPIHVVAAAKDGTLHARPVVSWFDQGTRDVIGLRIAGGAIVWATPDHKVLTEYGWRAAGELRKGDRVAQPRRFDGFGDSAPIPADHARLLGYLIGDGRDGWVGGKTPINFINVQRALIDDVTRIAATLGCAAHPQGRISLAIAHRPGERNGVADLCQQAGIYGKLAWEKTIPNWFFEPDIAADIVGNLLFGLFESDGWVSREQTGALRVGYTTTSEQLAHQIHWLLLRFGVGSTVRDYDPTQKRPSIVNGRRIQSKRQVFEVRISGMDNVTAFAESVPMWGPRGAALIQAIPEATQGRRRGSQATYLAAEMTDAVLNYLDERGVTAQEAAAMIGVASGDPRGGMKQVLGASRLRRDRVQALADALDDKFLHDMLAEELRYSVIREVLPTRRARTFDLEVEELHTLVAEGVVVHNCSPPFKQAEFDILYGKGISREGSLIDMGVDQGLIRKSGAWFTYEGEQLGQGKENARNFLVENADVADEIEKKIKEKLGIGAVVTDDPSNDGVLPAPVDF
Mtb bLac sens = beta-lactam sensitization of Mtb H37Rv; AID 434955; 330,000 tested, 0.27% active; M. tuberculosis H37Rv growth with meropenem, percent inhibition; hits of this screen are not shown here; inhibition, % at 25 µM;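 active means about 74% or more and at least 40 points above the plate without the antibiotic, then above 30% in a dose series; inconclusive means first-round hits that could not be retested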;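 further: growth measured after seven days incubation then overnight dye step; 0% = bacteria only wells and 100% = bacteria with antibiotic; twin plates without the antibiotic show which effects depend on it; some results filed as inactive read as strong as hits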
Mtb H37Rv = M. tuberculosis H37Rv growth inhibitors, H37Rv strain (AID 1626) | M. tuberculosis H37Rv growth inhibition; higher % means a stronger effect | inhibition, % at 10 µM, or IC50 in µM where a hit was titrated | 220,000 tested, 0.95% active;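 active means confirmed in a dose series; inconclusive means inhibition above 80% but not taken into the dose series; inactive means below 80% or under 30% at every dose of the series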;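 further: bacteria incubated seven days before Alamar blue readout; 0% = bacteria only wells and 100% = bacteria with antibiotic wells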
Arbovirus anti repeat = also measured in Arbovirus anti; calls as there; inhibition, %; measured here: 10K subset replicate screen; many hits read low in the repeat;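 first of two repeat runs on a subset; 0% = infected and 100% = uninfected wells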
Starred values were filed as active, the others as inactive; u = inconclusive; x = no result given. An excerpt; count on the stated rates, not on these rows.

SMILES | YopH PTP inh | Arbovirus anti | RecA splice inh | Mtb bLac sens | Mtb H37Rv | others
COC(=O)N/N=C/c1ccc(-c2ccc(Cl)c(Cl)c2)o1 | -15 | 2 | -1.4 | 98 | u
O=C(CCc1ccccc1)N/N=C/c1cccc(O)c1 | x | 2 | 3.7 | 0 | 6%
Cc1[nH]c2ccccc2c1CCNC(=O)c1c(N)no[n+]1[O-] | x | -5 | 1.5 | 3 | 19%
Cc1ccc(NC(=O)CSCc2cc(=O)n3nc(C4CC4)sc3n2)cc1 | x | x | 1.1 | 8 | x
CCOC(=O)C1CCN(C(=O)c2cc3c(=O)n4cccc(C)c4nc3s2)CC1 | x | x | -23 | 1 | x
Cc1ccc(S(=O)(=O)c2c(N)n(CCN3CCOCC3)c3nc4ccccc4nc23)cc1C | -38 | 4 | -4.1 | -2 | -7%
COc1cc(C(=O)NCCC(=O)NCCCN2CCCCC2)cc(OC)c1OC | -23 | -1 | -7.4 | u | -4%
COC(=O)c1nn(-c2ccc(OC)cc2)ccc1=O | x | x | -2.4 | -6 | x
COCc1nc2ccccc2n1CCOc1ccccc1OC | -35 | -2 | 0.2 | -2 | -6%
COc1ccc(NC(=O)N2CCc3ccccc32)cc1 | -11 | -5 | 1.5 | -1 | 12%

Overlap with the part before: two entries, then new ones.
SMILES | YopH PTP inh | Arbovirus anti | RecA splice inh | Mtb bLac sens | Mtb H37Rv | others
COCc1nc2ccccc2n1CCOc1ccccc1OC | -35 | -2 | 0.2 | -2 | -6%
COc1ccc(NC(=O)N2CCc3ccccc32)cc1 | -11 | -5 | 1.5 | -1 | 12%
COc1ccc2c3c1OC1C(O)C=CC4C(C2)[N+](C)(C)CCC341 (stereo not drawn) | x | x | 1.3 | 4 | x
CCCc1nn(C(=O)c2ccccc2)c2c1C(=O)CC(C)(C)C2 | -21 | -2 | 13 | -4 | -10%
CN(c1ccccc1C(=O)O)S(=O)(=O)c1ccc2c3c(cccc13)C(=O)N2 | -9 | 16 | x | -15 | -48%
O=C(NCCCN1CCC(Cc2ccccc2)CC1)C1CCN(S(=O)(=O)N2CCOCC2)CC1 | -23 | 7 | x | x | -5%
Cc1ccc(N(CC(=O)NC2CCCC2)C(=O)CCC(=O)Nc2nccs2)c(C)c1 | x | x | 1.8 | -4 | x
CCOc1ccccc1NC1=CC(=O)CC(c2ccccc2)C1 (stereo not drawn) | -3 | -12 | 4.6 | -9 | 4%
NC(=O)CSc1oc(-c2ccco2)nc1S(=O)(=O)c1ccc(Br)cc1 | x | x | 4.1 | -1 | x
CCOC(=O)Cc1nnc(-c2ccccc2)o1 | x | 0 | 2.7 | 3 | -3%
CCOC(=O)c1c(C)[nH]c(C2=NNC(=NC3CC3)SC2)c1C | x | -13 | x | 0 | 8%
CCOC(=O)c1nn(-c2ccccc2C)c2nc(Nc3ccccc3)cc(=O)n12 | -14 | 7 | 0.2 | 21 | 5%
CCOC(=O)c1cccc(NC(=O)CSc2nnc(CNc3ccc(C)cc3)n2CC)c1 | 8 | -1 | 2.1 | -7 | 3%
CN1CCN(CC#CC(C)(O)C2CC3C=CC2C3)CC1 (stereo not drawn) | -25 | 2 | 6.2 | -18 | 8%
CCc1nc(C#N)c(N2CCOCC2)o1 | -26 | -7 | 0.0 | 1 | 0%
Cc1[nH]c2c(Cl)cccc2c1CCNC(=O)C1CCCCC1C(=O)OCC(F)(F)F (stereo not drawn) | -26 | -8 | -6.5 | 6 | 6%
O=C(Nc1ccccc1[N+](=O)[O-])c1cccnc1Cl | -9 | 1 | -1.4 | -4 | 1%
Cc1cccc(NC(=O)CCC(=O)N/N=C/c2cccnc2)c1 | x | x | -0.7 | -7 | x
O=C(CCCN1C(=O)c2ccccc2C1=O)NCCC1=CCCCC1 | 7 | 6 | -2.2 | -15 | 1%
Cc1ccc(S(=O)(=O)N2CCC(=O)N(C(COCc3ccc(Cl)c(Cl)c3)Cc3ccccc3)CC2)cc1 (stereo not drawn) | -11 | -7 | 14 | -6 | 20%
COCC(C)NCc1ccc(OC)c(Br)c1 (stereo not drawn) | x | -2 | -0.3 | -7 | 2%
CCc1nnc(NC(=O)c2c(C)nn(-c3ccccc3)c2Cl)s1 | -29 | 8 | 0.2 | 54 | 0%
CC(=O)Nc1ccc2c(c1)CCc1ccccc1-2 | x | x | 0.5 | -5 | x
CC(C)C(NC(=O)OCc1ccccc1)C(=O)OCC(=O)NC1CC1 (stereo not drawn) | x | 2 | x | -1 | -2%
Nc1nc(NC(=O)c2ccccc2)nn1-c1ccccc1 | -28 | 6 | -0.3 | 0 | -1%
CCOc1ccccc1C1c2cc3c(cc2OC(C)(N2CCCC2)C1C)OCO3 (stereo not drawn) | x | x | -2.4 | -7 | x
C#CCOCCOCCOCCNc1nc(N2CCN(C(=O)[C@H](CCCCN)n3cc([C@@H](N)CO)nn3)CC2)nc(N2CCN(C(=O)[C@H](Cc3cc4ccccc4[nH]3)n3cc([C@@H](N)CC(C)C)nn3)CC2)n1 | x | -5 | 5.7 | 68 | x
O=C1CCc2cc(S(=O)(=O)N3CCC(C(=O)NCCC4=CCCCC4)CC3)ccc2N1 | -50 | -15 | x | 4 | -11%
CC(=O)N1CCC2(CC1)C(C#N)=C(N)Oc1n[nH]c(C)c12 | -16 | -3 | 79* | u | -12% | Arbovirus anti repeat=1
CC1Cc2ccccc2N1CC(=O)NC(=O)NC(C)(C)C (stereo not drawn) | x | 2 | 1.0 | -4 | -9%
CNC(=S)Nc1ccc(OC(F)(F)F)cc1 | x | -1 | -0.4 | -8 | 7%
COc1ccc(C(C(=O)NC(C)(C)C)N(C(=O)CCC(=O)Nc2cc(C)on2)c2ccc3c(c2)OCCO3)cc1 (stereo not drawn) | x | x | -1.9 | -5 | x
O=C1c2ccncc2C(=O)N1CNc1ccc(Cl)cc1 | x | -13 | 0.2 | -8 | -1%
CCC(=O)N1CCN(c2ccc(NC(=S)NC(=O)C(C)C)cc2)CC1 | x | 1 | x | 5 | -6%
O=S(=O)(c1cccc(Cl)c1Cl)N1CCN(C(=S)NCCCN2CCOCC2)CC1 | x | -9 | 0.7 | -1 | -6%
NS(=O)(=O)c1ccc(CNC(=O)CNC(=O)c2ccc(Br)o2)cc1 | x | x | -0.4 | -3 | x
CCCNC(=O)c1cc2ccccc2c(=O)o1 | -14 | 0 | 0.2 | -8 | -11%
CCn1c(SCC(=O)N(C)CCC#N)nc2cc(S(=O)(=O)N3CCOCC3)ccc21 | x | x | -3.7 | -2 | x
O=C(c1ccc(F)cc1)N1CCC(N2CCOCC2)CC1 | 24 | 1 | 0.4 | 4 | 12%
CC/C(=N\Nc1ccccc1)c1c(O)n(C)c(=O)n(C)c1=O | -37 | -31 | -1.6 | 84 | u
CCCn1cccc(C(=O)Nc2ccc(OC)cc2)c1=O | x | x | 5.9 | 1 | x
O=C(Cc1ccc([N+](=O)[O-])cc1)Nc1ccc(Cl)cc1 | x | 2 | 0.7 | -1 | 4%

Of the compounds above, 3 have a furan ring, fused or not:
SMILES | YopH PTP inh | Arbovirus anti | RecA splice inh | Mtb bLac sens | Mtb H37Rv | others
COC(=O)N/N=C/c1ccc(-c2ccc(Cl)c(Cl)c2)o1 | -15 | 2 | -1.4 | 98 | u
NC(=O)CSc1oc(-c2ccco2)nc1S(=O)(=O)c1ccc(Br)cc1 | x | x | 4.1 | -1 | x
NS(=O)(=O)c1ccc(CNC(=O)CNC(=O)c2ccc(Br)o2)cc1 | x | x | -0.4 | -3 | x

Remaining list, next part:
SMILES | YopH PTP inh | Arbovirus anti | RecA splice inh | Mtb bLac sens | Mtb H37Rv | others
N#Cc1c(N)c(C(=O)c2ccccc2)n2ccccc12 | x | x | -0.3 | 1 | x
CCCCc1ncc(CN2CCN(Cc3ccc(C)cc3)C(CCO)C2)[nH]1 (stereo not drawn) | x | -1 | -18 | 12 | 2%
COCCOC(=O)C1=C(C)OC(N)=C(C(=O)OC)C12C(=O)Nc1ccccc12 (stereo not drawn) | -29 | -4 | -3.7 | 0 | -7%
CN(C(=O)CSc1nnc(-c2n[nH]c3ccccc23)o1)c1ccccc1 | -14 | -5 | -1.1 | 2 | -3%
CC(C)NS(=O)(=O)c1ccc(NC(=S)NC(=O)c2cccc([N+](=O)[O-])c2)cc1 | -29 | 5 | 1.2 | 1 | 3%
COCCN=C1Sc2nc3ccc(C)cc3cc2CN1Cc1ccco1 | 7 | 0 | 3.7 | 97 | -8%
Cc1[nH]c2ccccc2c1SCCNC(=O)c1ccc(Br)o1 | -11 | 7 | 2.0 | 1 | 0%
Cc1onc(-c2ccccc2)c1NC(=O)Nc1ccc(OC(F)F)cc1 | x | x | 0.1 | -8 | 2%
COc1cc(CNc2ccc3[nH]c(=O)[nH]c3c2)ccc1OCc1ccccc1C | x | x | -0.3 | -5 | x
COc1cccc(C2C(C#N)=C(N)N(N(C)C)C3=C2C(=O)CCC3)c1 (stereo not drawn) | x | x | -2.2 | 4 | x
CCOc1ncccc1C(=O)OCc1ccc(Cl)cc1 | -2 | -7 | 5.3 | 5 | 6%
COc1ccc(CCC(=O)NCCNC(=O)CCc2ccc(OC)cc2)cc1 | x | x | -1.3 | 6 | x
O=C(NC1=NCCS1)c1ccc(Cl)cc1 | x | x | -0.7 | 10 | x
O=S(=O)(NCc1cccnc1)c1ccc(Cl)c2ccccc12 | x | x | 0.2 | -5 | x
Cc1ccc(C(=O)O/N=C(\N)c2ccc(C(F)(F)F)cn2)cc1 | x | x | -2.0 | 59 | x
CCOC(=O)C1=C(CN2CCOCC2)NC(=O)NC1c1cccc([N+](=O)[O-])c1 (stereo not drawn) | x | 5 | -2.3 | -11 | -9%
CC(=O)c1ccc(NC(=S)NCCCn2ccnc2)cc1 | x | -1 | 1.6 | -4 | 3%
CC1=C(C(=O)OCc2ccccc2)C(c2cccc(Br)c2)NC(=O)N1 (stereo not drawn) | x | x | 2.8 | 1 | x
CN(Cc1ccccc1)S(=O)(=O)c1ccc(NC(=O)C2CCCO2)cc1 (stereo not drawn) | -31 | 3 | 0.4 | 12 | -5%
Cc1ccccc1NC(=O)Cc1nc(COC(=O)CCNS(=O)(=O)c2ccccc2)cs1 | x | x | 0.4 | -1 | x
Cc1ccc(C(=O)c2cc([N+](=O)[O-])ccc2N2CCOCC2)cc1C | -24 | -18 | 1.0 | 5 | 6%
CC(C)(C)OC(=O)N1Cc2ccccc2C[C@H]1C(=O)NC1CCCC1 | x | x | 0.8 | 6 | x
S=c1[nH]nc(CCSCc2ccccc2)n1-c1ccccc1 | x | 5 | -1.2 | -5 | -2%
CCC(CC)c1nnc(NC(=O)c2cc(-c3ccccc3)nc3ccccc23)s1 | -28 | 3 | 5.6 | 80 | 66%
Cc1cccc(NC(=O)CN2C(=O)C(C)Oc3ccccc32)n1 (stereo not drawn) | x | -2 | -0.3 | -2 | 1%
Cc1cccc(OP(N)(=O)Oc2cccc(C)c2C)c1C | x | x | 13 | 4 | 6%
Cc1cc(C)c2nc(N3CCN(C)CC3)c(C#N)cc2c1 | -40 | 1 | -6.5 | 0 | -4%
Cc1cccc(C)c1NC1=NCCCCS1 | -35 | 0 | 4.6 | -5 | -6%
COc1ccc(-n2c(COc3ccc(C)cc3)nnc2SCc2ccc(C#N)cc2)cc1 | -13 | -6 | 7.1 | -13 | 10%
Cc1cc(-c2n[nH]c(=S)n2/N=C/c2ccco2)n[nH]1 | x | x | -1.5 | -9 | -12%
O=C(NC1CCSc2ccccc21)c1ccccc1F (stereo not drawn) | x | x | 0.0 | 4 | x
CCOC(=O)Cc1nnc(NC(=O)CSc2ncc(-c3ccccc3)nn2)s1 | x | 4 | -4.6 | -8 | 0%
CN1C(=O)CSc2ccc(NC(=O)NCc3ccccc3)cc21 | x | -6 | -0.6 | -12 | 2%
CN(C)c1ccc(-c2nn3c(C4CCCCC4)nnc3s2)cc1 | -52 | -11 | 1.8 | 15 | 7%
O=C(Nc1ccccc1C(=O)O)c1cc(S(=O)(=O)N2CCCCC2)cs1 | x | 11 | -2.9 | -5 | -2%
COc1ccc(C(=O)N/C(=C\c2ccc(Cl)cc2)C(=O)NCC2CCCO2)cc1 (stereo not drawn) | x | x | 0.4 | 4 | x
Cc1ccc(-c2csc(NC(=O)c3cc([N+](=O)[O-])ccc3N3CCOCC3)n2)cc1 | x | 0 | -2.3 | 0 | 5%
CCC(C)(C)c1nnc(NC(=O)C2CCN(C(=O)c3ccco3)CC2)s1 | x | x | -2.2 | 64 | x
COc1ccc(CC2c3cc(OC)c(OC)cc3CCN2C)cc1OC (stereo not drawn) | -21 | 13 | -4.5 | -5 | -13%
COc1cccc(-c2nc(NCCN3CCOCC3)c3ccccc3n2)c1O | -19 | -34 | 1.1 | -1 | 0%
CCOc1ccc(C(=O)NCCC(=O)NCCCC(=O)O)cc1 | -24 | -1 | x | 12 | 2%
COc1oc(-c2ccc(Cl)cc2)nc1C(F)(F)F | -33 | 11 | x | -6 | -7%
